# Mtb MbtI inh: inhibitors of Mycobacterium tuberculosis siderophore enzyme MbtI. inhibition, %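 (about 17 µg/mL by stock and volumes)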. purified MbtI enzyme, fluorescence intensity read-out. P9WFX0. actives 0.89% (n = 100,000). AID 493033;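 active = above 50% in both replicates, above 80% if mildly self-fluorescent; inactive = the rest, strongly fluorescent compounds included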;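 also: 0% = mean of negative and 100% = mean of positive controls; one replicate is shown; some compounds called inactive have numbers as strong as hits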
# PV pol inh: poliovirus RNA polymerase inhibition. poliovirus polymerase elongation, fluorescence polarization; hits give low values. % elongation, % (compound at 16.7 µg/mL). actives 0.66% (n = 150,000); in the data active = % elongation below about 90%; also: some results filed as inactive read as strong as hits
# Target sequence (P03300 1749-2209 limits assumed): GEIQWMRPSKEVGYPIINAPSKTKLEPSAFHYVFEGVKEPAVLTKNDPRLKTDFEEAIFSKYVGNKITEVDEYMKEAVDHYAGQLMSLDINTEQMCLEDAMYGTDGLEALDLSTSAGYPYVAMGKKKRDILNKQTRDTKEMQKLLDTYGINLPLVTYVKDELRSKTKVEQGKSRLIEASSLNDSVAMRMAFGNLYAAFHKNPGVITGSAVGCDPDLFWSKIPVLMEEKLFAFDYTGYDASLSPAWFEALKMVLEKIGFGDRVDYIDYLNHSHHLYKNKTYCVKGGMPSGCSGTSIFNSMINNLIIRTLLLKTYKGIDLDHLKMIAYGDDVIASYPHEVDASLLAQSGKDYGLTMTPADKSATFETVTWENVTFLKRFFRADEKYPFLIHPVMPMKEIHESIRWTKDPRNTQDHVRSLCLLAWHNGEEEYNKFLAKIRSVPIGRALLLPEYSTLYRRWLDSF
# MenB inh: Mtb MenB enzyme inhibition; actives 0.43% (n = 100,000); P9WNP5; MenB enzyme assay, absorbance read-out; some hits fall short of the stated cut; AID 540299; inhibition, %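 (about 12 µg/mL by stock and volumes)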;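 active = mean of two replicates above 30%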;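 also: 0% = no compound and 100% = wells with inactive enzyme; the first replicate is given; strong numbers were not always called active; inactives centre near -10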
# Target sequence (P9WNP5 whole entry, looked up): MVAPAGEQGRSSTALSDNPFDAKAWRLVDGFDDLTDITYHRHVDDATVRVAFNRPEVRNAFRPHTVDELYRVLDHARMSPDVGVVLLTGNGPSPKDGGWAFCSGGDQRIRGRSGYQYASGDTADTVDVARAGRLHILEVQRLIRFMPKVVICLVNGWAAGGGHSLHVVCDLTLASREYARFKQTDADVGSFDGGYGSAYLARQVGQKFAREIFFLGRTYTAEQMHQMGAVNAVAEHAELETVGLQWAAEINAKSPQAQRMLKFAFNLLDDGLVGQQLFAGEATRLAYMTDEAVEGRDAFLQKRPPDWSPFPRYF
# PV pol inh intensity: also measured in PV pol inh; calls as there; % elongation; measured here: total intensity read-out; formula for this scale not given here;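 total fluorescence in place of polarization; lower means less elongation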
# * = called active by the depositor; · = no result given.
# Preview:
# Value order: Mtb MbtI inh	PV pol inh	PV pol inh intensity	MenB inh
> Cc1csc(N(C(=O)CSc2nnc(C)n2-c2ccccc2)c2ccccc2)n1
→ -7	103	96	-24
> O=C(NC1CCCC1)c1cc(NS(=O)(=O)c2ccc(F)cc2)ccn1
→ -20	101	105	-14
> Cc1c(CC(=O)NN)sc2ccc(Cl)cc12
→ -1	105	101	-25
> CC1COc2c(N3CCN(C)CC3)c(F)cc3c(=O)c(C(=O)OCc4ccccn4)cn1c23 (stereo not given)
→ 63	100	98	-18
> Cc1ccc(C2=NC3(CCCCC3)NC2=O)cc1
→ 0	103	102	-2
> Oc1ccccc1Oc1c(F)c(F)nc(F)c1Cl
→ 6	103	104	-14
> CNC(=S)N(Cc1cc2cc(OC)ccc2[nH]c1=O)CC1CCCO1 (stereo not given)
→ 82	107	101	-7
> CC(C)NC(=O)CCn1nc(-c2ccc(Cl)cc2)c2ccccc2c1=O
→ 12	103	101	-17
> COc1ccc(NC(=O)C(C)n2sc3ccccc3c2=O)c(OC)c1 (stereo not given)
→ 1	101	102	4
> O=C(CNC(=O)c1ccc(Cl)cc1)c1ccc(Cl)cc1
→ 33	107	98	-14
> O=C(Cn1cnc2c(cnn2-c2ccccc2)c1=O)N1CCCc2ccccc21
→ 7	100	102	-19
> CCCOc1ccc(C(=O)O)cc1
→ -5	103	104	·
> CSc1ccc(/C=N/OCc2ncc(-c3ccccc3)o2)cc1
→ 147	102	111	-3

# Main list (from the top)
# Value order: Mtb MbtI inh	PV pol inh	PV pol inh intensity	MenB inh
> Cc1csc(N(C(=O)CSc2nnc(C)n2-c2ccccc2)c2ccccc2)n1
→ -7	103	96	-24
> O=C(NC1CCCC1)c1cc(NS(=O)(=O)c2ccc(F)cc2)ccn1
→ -20	101	105	-14
> Cc1c(CC(=O)NN)sc2ccc(Cl)cc12
→ -1	105	101	-25
> CC1COc2c(N3CCN(C)CC3)c(F)cc3c(=O)c(C(=O)OCc4ccccn4)cn1c23 (stereo not given)
→ 63	100	98	-18
> Cc1ccc(C2=NC3(CCCCC3)NC2=O)cc1
→ 0	103	102	-2
> Oc1ccccc1Oc1c(F)c(F)nc(F)c1Cl
→ 6	103	104	-14
> CNC(=S)N(Cc1cc2cc(OC)ccc2[nH]c1=O)CC1CCCO1 (stereo not given)
→ 82	107	101	-7
> CC(C)NC(=O)CCn1nc(-c2ccc(Cl)cc2)c2ccccc2c1=O
→ 12	103	101	-17
> COc1ccc(NC(=O)C(C)n2sc3ccccc3c2=O)c(OC)c1 (stereo not given)
→ 1	101	102	4
> O=C(CNC(=O)c1ccc(Cl)cc1)c1ccc(Cl)cc1
→ 33	107	98	-14

# Carrying on.
# Value order: Mtb MbtI inh	PV pol inh	PV pol inh intensity	MenB inh
> O=C(Cn1cnc2c(cnn2-c2ccccc2)c1=O)N1CCCc2ccccc21
→ 7	100	102	-19
> CCCOc1ccc(C(=O)O)cc1
→ -5	103	104	·
> CSc1ccc(/C=N/OCc2ncc(-c3ccccc3)o2)cc1
→ 147	102	111	-3
> CCOC(=O)Cc1nnc(NC(=O)C(CC)Sc2nnc3c4ccccc4n(C)c3n2)s1 (stereo not given)
→ ·	103	109	-17
> CC1C/C(=C/c2cccnc2)C(=O)/C(=C/c2cccnc2)C1 (stereo not given)
→ 3	97	100	5
> COc1cc(S(=O)(=O)n2cnc3cc(C)c(C)cc32)c(C)cc1C
→ 4	101	99	7
> CC(=O)Nc1cnn(-c2ccccc2)c(=O)c1Cl
→ -1	101	103	1
> CCOc1ccc(S(=O)(=O)NCCC(=O)NC2=NCCS2)cc1
→ 4	104	106	-21
> CCC1(C(=O)c2ccccc2)C2c3cc(Br)ccc3OC(=O)C21C(=O)c1ccco1 (stereo not given)
→ 6	104	105	5
> CCOc1ccc(NC(=O)CCC(C(=O)O)C(C)C)cc1 (stereo not given)
→ -9	103	101	-32

# (more compounds)
# Value order: Mtb MbtI inh	PV pol inh	PV pol inh intensity	MenB inh
> O=C(NC1CCCC1)C1CCN(S(=O)(=O)N2CCCCC2)CC1
→ -6	101	100	-3
> CN(C)c1ccc(-c2nnc(-c3cccnc3)o2)cc1
→ -458	102	98	-56
> CC1SC(/N=C/c2ccc(O)cc2)=NNC1=O (stereo not given)
→ ·	105	103	-19
> O=C(O)c1ccc(-n2nnnc2SCC(=O)N2CCOCC2)cc1
→ -5	103	103	0
> Cc1n[nH]c(=O)c2c(NC(=O)COC(=O)CC3(Cc4nc5ccccc5s4)CCCC3)oc(C)c12
→ 35	104	96	-11
> CCOC(=O)C1CCN(C(=O)c2cnn(-c3ccccc3)c2-n2cccc2)CC1
→ -13	101	99	-29
> C/C(=N\O)c1cc(Cl)cc(Cl)c1O
→ 2	102	105	-34
> COC(=O)c1sc(NC(=O)COC(=O)/C=C/c2ccc(C)o2)c(C(=O)OC)c1C
→ -1	104	111	-33
> CC(=O)Oc1ccccc1C(=O)Oc1cccc(C)c1
→ -30	103	104	-12
> c1ccc(C(Sc2ncn[nH]2)c2ccccc2)cc1
→ ·	104	104	-1

# The list continues.
# Value order: Mtb MbtI inh	PV pol inh	PV pol inh intensity	MenB inh
> CCOC(=O)c1cc(C)n(CCCN2CCOCC2)c1C
→ -7	98	105	5
> Cc1cc(=S)nc(C(C)C)[nH]1
→ 91*	100	97	-53
> O=C(Oc1ccccc1N1CCCCC1)c1sccc1Cl
→ -8	110	108	11
> COc1ccc(Cn2c3ccccc3c3nc4ccccc4nc32)cc1
→ 1	102	105	8
> O=C(NC1CCN(C(=O)Nc2cccc(Cl)c2)CC1)C1CCCCC1
→ 0	101	101	-36
> Cc1ccc2cc(CN(Cc3ccccc3)C(=O)C3CC3)c3nnnn3c2c1
→ -7	102	103	-51
> CCc1ccc(C(=O)Cc2cc3cccc(OC)c3oc2=O)cc1
→ -9	101	100	-17
> CC(NC(=S)Nc1ccc(S(N)(=O)=O)cc1)c1ccncc1 (stereo not given)
→ 1	99	101	-3
> CC(C)(C)c1ccc(OCCn2ccccc2=O)cc1
→ -4	101	100	8
> CN(CC(=O)Nc1ccc(F)cc1F)S(=O)(=O)c1ccc2c(c1)c(=O)n(C)c(=O)n2C
→ -16	103	107	-19

# Later entries
# Value order: Mtb MbtI inh	PV pol inh	PV pol inh intensity	MenB inh
> COc1cc(-c2ccc(/C=C3\SC(=N)N(c4nccs4)C3=O)o2)c(OC)cc1Cl
→ 56*	113	139	-29
> CC1CCCCN1C(=S)NC(=O)c1ccccc1Cl (stereo not given)
→ -2	108	102	-19
> O=C(CN1CCN(S(=O)(=O)c2ccc(Br)cc2)CC1)c1ccc2c(c1)OCO2
→ 3	101	105	0
> NC(=O)C1CCN(C(=O)Nc2cccc(Cl)c2)CC1
→ -4	98	102	3
> CCCn1c(C)cc(C(=O)CSc2nnc(-c3cc(OC)c(OC)c(OC)c3)o2)c1C
→ -4	100	122	-6
> CCOC(=O)C1=C(CSc2nc(CC)c(C)cc2C#N)OC(N)=C(C#N)C1c1ccc(F)cc1 (stereo not given)
→ ·	107	108	-13
> CCOC(=O)C(C)N1c2cccc3cccc(c23)S1(=O)=O (stereo not given)
→ 11	103	100	-6
> COc1ccc(NS(=O)(=O)c2ccc3oc(SCC(=O)Nc4ccc5c(c4)OCO5)nc3c2)cc1
→ -1	97	102	-20
> O=C(Cn1cc(/C=C2\NC(=S)N(c3ccccc3)C2=O)c2ccccc21)NCc1ccco1
→ 13	90	127	-1
> CCOC(=O)c1c(NC(=O)CSc2nnc3c4ccccc4n(CC)c3n2)sc2c1CCN(C)C2
→ 3	102	100	-2

# (further entries)
# Value order: Mtb MbtI inh	PV pol inh	PV pol inh intensity	MenB inh
> Cc1ccc(OCC(=O)N2CCCCC2)cc1
→ -6	101	105	-18
> C=CCn1c(C)nnc1SCC(=O)c1ccc2ccccc2c1
→ 9	96	99	-13
> CCOC(=O)c1cc2c(ccn2C)n1Cc1c(Cl)cccc1Cl
→ 1	100	100	-49
> O=C1c2ccncc2C(=O)N1C1CCCCC1
→ ·	110	108	-7
> CCC12CC3CC(O)(CC(O)(C3)C1)C2
→ -1	100	106	12
> CNC(=S)N1CCN(C(=O)/C(=C/c2ccc(F)cc2)NC(C)=O)CC1
→ 6	104	98	-70
> O=C(Cn1cc(C(F)(F)F)ccc1=O)NCC(F)(F)F
→ 12	98	102	-25
> Cc1noc(-c2ccccc2)c1NC(=O)NCC1COc2ccccc2O1 (stereo not given)
→ -6	102	105	-10
> COc1cc(C#N)ccc1OCC(N)=O
→ -21	102	102	-67
> CC1=C/C(=C\c2c(O)n(-c3cccc(C)c3)c(=O)[nH]c2=O)C(C)=N1
→ -1	113	143	-361

# Further records:
# Value order: Mtb MbtI inh	PV pol inh	PV pol inh intensity	MenB inh
> CCNc1nc(NCC)n2c(SCC(=O)c3c[nH]c4ccccc34)nnc2n1
→ -1	104	109	-29
> Cc1nn(-c2ccccc2)nc1C(=O)ON1C(=O)C2C3C=CC(O3)C2C1=O (stereo not given)
→ 32	97	93	-14
> N#Cc1cccc(CS(=O)(=O)c2ccc(Cl)cc2)c1
→ -2	103	101	-5
> COc1cc(CCC(=O)NC(C)C(c2ccccc2)N2CCOCC2)cc(OC)c1OC (stereo not given)
→ -5	101	104	0
> C/C(=N\NC(=O)Cc1ccc(Cl)cc1)c1ccccc1O
→ 4	100	103	-28
> C=CCn1c(Cc2c[nH]c3ccccc23)nnc1SCC(=O)Nc1ccc(OC)cc1
→ -5	99	97	-1
> O=C(NCCCN1CCCC1=O)c1ccc(Cl)c(NS(=O)(=O)c2ccc(F)cc2)c1
→ -1	100	100	-12
> CCCCn1c(=O)n(Cc2cc(=O)n3ccsc3n2)c(=O)c2c1ncn2Cc1ccco1
→ -3	101	114	-9
> Cc1ccc(C)c(-n2nnnc2SCC(=O)OCC(=O)c2cc(C)n(-c3ccc4c(c3)OCO4)c2C)c1
→ 0	101	104	-19
> O=C(Nc1nnc(-c2ccccc2)o1)C1CCN(C(=O)/C=C/c2ccccc2)CC1
→ 6	104	102	7

# Next part.
# Value order: Mtb MbtI inh	PV pol inh	PV pol inh intensity	MenB inh
> Cn1nc(NC(=O)COCC(=O)O)c2ccccc21
→ 0	100	100	4
> CCOC(=O)c1c(C)n(-c2ccc(OC)cc2)c2ccc(Oc3ncccc3C#N)cc12
→ -12	99	103	-72
> CCC(=O)Nc1cc(C(F)(F)F)ccc1N1CCOCC1
→ ·	104	107	-3
> CCC(C(=O)NC1CCCCC1)n1c(C(=O)OC)cc2sc(Cl)cc21 (stereo not given)
→ 2	104	105	4
> CC(=O)N1CC(=O)N=C1SCC(=O)Nc1nc(-c2ccccc2)cs1
→ 23	98	89	9
> Cn1ncc2c(NNC(=S)Nc3ccc(F)cc3F)ncnc21
→ 25	102	101	-24
> O=C(CSc1oc(-c2ccc(Cl)cc2)nc1S(=O)(=O)c1ccccc1)N1CCCC1
→ -7	120	130	-30
> CC1CCN(C(=O)COC(=O)c2sc3ccccc3c2Cl)CC1
→ -9	104	105	·
> Cc1cccc(NC(=O)C(Cc2ccccc2)NS(=O)(=O)c2cccc3cccnc23)c1 (stereo not given)
→ -3	101	106	-3
> Cc1ccc(S(=O)(=O)NC(=O)N2CCCc3cc(SC#N)ccc32)cc1
→ 8	98	97	6

# Next compounds.
# Value order: Mtb MbtI inh	PV pol inh	PV pol inh intensity	MenB inh
> Cc1nn(C)c(C)c1P(=S)(c1c(C)nn(C)c1C)N(C)C
→ 5	101	105	-15
> O=C(c1ccco1)N(C(=O)c1ccco1)c1nc2ccccc2nc1N1CCOCC1
→ -21	106	106	-21
> CC1CCCCN1C(=O)NC12CC3CC(CC(C3)C1)C2 (stereo not given)
→ -23	102	105	5
> COc1cc2c(cc1OC)CN(C(=O)c1sc(-c3cnccn3)nc1C)CC2
→ -4	107	111	-3
> O=C(Nc1ccc(Cl)cc1)OCc1nccn1Cc1ccc(Cl)cc1
→ -5	101	100	2
> N#Cc1c(C(F)(F)F)nc2sc3ccccc3n2c1=N
→ ·	106	106	-26
> CCc1ccc(/C=N/n2c(C)nnc2-n2nc(C)cc2C)cc1
→ 10	105	99	5
> N#Cc1ccc2c(c1)N(CCCN1CCC(O)CC1)c1ccccc1S2
→ -4	100	104	0
> O=C(CC1CCCCC1)NCc1ccco1
→ -5	101	102	-8
> O=C(Cc1coc2cc3c(cc12)CCC3)OCCN1CCCC1=O
→ -3	104	115	7

# Not a retest: an excerpt of the list.
# Value order: Mtb MbtI inh	PV pol inh	PV pol inh intensity	MenB inh
> N#Cc1ccc2c(c1)N(CCCN1CCC(O)CC1)c1ccccc1S2
→ -4	100	104	0
> O=C(CC1CCCCC1)NCc1ccco1
→ -5	101	102	-8

# Next part.
# Value order: Mtb MbtI inh	PV pol inh	PV pol inh intensity	MenB inh
> O=C(O)CCC(=O)N1CCNC(=O)C1
→ ·	104	103	2
> O=C(Nc1ccccc1)Nc1ccc(Br)cc1
→ -3	103	109	-12
> CC(Sc1cccc[n+]1[O-])C(=O)N1CCN(C(=O)c2ccco2)CC1 (stereo not given)
→ 54	97	92	-9
> O=C(CSCc1ccccc1Cl)N/N=C/c1ccco1
→ 14	102	103	-9
> COc1ccc(-n2c(N(C(C)=O)C(C)=O)c(C#N)c3nc4ccccc4nc32)cc1
→ 12	101	105	-6
> CC(N)CCCc1ccccc1 (stereo not given)
→ -4	101	101	-10
> Cc1[nH]c(=O)[nH]c(=O)c1Oc1ccccc1
→ -7	102	101	1
> COc1ccc(OC)c(NC(=O)CNc2cc(OC)c(Cl)cc2OC)c1
→ -9	105	111	-11
> O=C(N/N=C/c1ccco1)c1ccc(CSc2nc3ccccc3s2)cc1
→ -8	107	109	-5
> Cc1ccc2c(c1)NNc1nncn1-2
→ 2	101	107	-22
> COC(=O)c1ccc2c(c1)CCO2
→ 2	105	105	-5

# Assay outcomes (PubChem BioAssay)
